Screening data from PubChem BioAssay.
Mtb growth: Confirmatory growth inhibition assay against Mycobacterium tuberculosis H37Rv, potency (AID 1949); most inactive calls were filed without a number and no value below 0 was filed; inhibition, % at 10 µg/mL; hits with a dose series show IC50 in µg/mL; 100,000 tested, 1.6% active;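 active = confirmed in a dose series; inconclusive = about 50% or more but not retested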;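 also: bacteria grown 7 days with compound before Alamar blue readout; 0% = untreated bacteria and 100% = reference antibiotic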
The depositor's hits bear a star; i = inactive; ? = inconclusive. Only part of the results is shown; count on the stated rates, not on these rows.

Structure	Mtb growth
CCc1ccc(OCCCC(=O)Nc2ccc(N3CCOCC3)cc2)cc1	i
CCOc1ccc(CCNC(=O)C(Cc2ccccc2)N2C(=O)c3ccccc3C2=O)cc1OCC (stereo not drawn)	i
Cn1c(=O)c2c(nc(CN3CCC(Cc4ccccc4)CC3)n2CCN2CCOCC2)n(C)c1=O	i
Cc1c(C(=O)NCc2cccnc2)oc2ccccc12	8%
O=C(COc1ccc(Cl)cc1Cl)Nc1ccccc1OC(F)F	i
CC(=O)N1CCN(c2ccc(NCc3cccs3)cc2)CC1	0%
CCN1C=C(C(=O)OC)C(c2cc3c(cc2Br)OCO3)C(C(=O)OC)=C1	i
Cc1ccc(S(=O)(=O)Nc2ccccc2C(=O)Nc2ccc([N+](=O)[O-])cc2)cc1	i
Cc1ccc(C)c(OCCCC(=O)Nc2ccc(Cl)cc2C)c1	i
Cc1c(Cl)ccc(NC(=O)C2CCCN2S(=O)(=O)c2ccccc2)c1Cl (stereo not drawn)	i
COc1ccccc1NC(=O)CSc1ncnc2sc(-c3ccccc3)cc12	i
COC(=O)c1c(-c2ccc(C)cc2)csc1NC(=O)c1ccccc1C	2%

An excerpt from above in order of length of the SMILES, falling:
Structure	Mtb growth
Cc1ccc(S(=O)(=O)Nc2ccccc2C(=O)Nc2ccc([N+](=O)[O-])cc2)cc1	i
Cc1c(Cl)ccc(NC(=O)C2CCCN2S(=O)(=O)c2ccccc2)c1Cl (stereo not drawn)	i
CCc1ccc(OCCCC(=O)Nc2ccc(N3CCOCC3)cc2)cc1	i
Cc1ccc(C)c(OCCCC(=O)Nc2ccc(Cl)cc2C)c1	i
O=C(COc1ccc(Cl)cc1Cl)Nc1ccccc1OC(F)F	i
CC(=O)N1CCN(c2ccc(NCc3cccs3)cc2)CC1	0%
Cc1c(C(=O)NCc2cccnc2)oc2ccccc12	8%

More compounds
Structure	Mtb growth
CC(Oc1ccc(C(C)(C)C)cc1)C(=O)Nc1ccc(S(=O)(=O)Nc2ncccn2)cc1 (stereo not drawn)	i
CCn1c(SCC(=O)NC2CCCCC2)nc2ccccc21	i
Cc1ccc(C)c(NC(=O)CSc2nc(-c3ccccc3)cc(C(F)(F)F)n2)c1	i
COc1cc(S(=O)(=O)NC2CCCCC2)ccc1Cl	i
O=C(c1ccc(-c2nc3ccccc3nc2-c2ccccc2)cc1)N1CCCC1	3%
CCc1nnc(NC(=O)c2cnccn2)s1	1%
Fc1cccc(Cl)c1CNCc1cccnc1	0%
O=C(O)c1cccc(Nc2nc(-c3ccccc3)nc3ccccc23)c1	3%
O=C(NC(=S)Nc1ccc(-c2cc3ccccc3oc2=O)cc1)c1cccs1	i
CCOC(=O)c1ccc(COC(=O)c2cccc3ccccc23)cc1	i
CCOC(=O)Cc1ccc(NC(=O)c2cc(SC)ccc2Cl)cc1	i
O=C1NC(Cc2c[nH]c3ccccc23)C(=O)N1c1cccc(Cl)c1 (stereo not drawn)	5%

The list goes on, starting with the last 7 of the part before.
Structure	Mtb growth
CCc1nnc(NC(=O)c2cnccn2)s1	1%
Fc1cccc(Cl)c1CNCc1cccnc1	0%
O=C(O)c1cccc(Nc2nc(-c3ccccc3)nc3ccccc23)c1	3%
O=C(NC(=S)Nc1ccc(-c2cc3ccccc3oc2=O)cc1)c1cccs1	i
CCOC(=O)c1ccc(COC(=O)c2cccc3ccccc23)cc1	i
CCOC(=O)Cc1ccc(NC(=O)c2cc(SC)ccc2Cl)cc1	i
O=C1NC(Cc2c[nH]c3ccccc23)C(=O)N1c1cccc(Cl)c1 (stereo not drawn)	5%
O=C(Nc1cccc2cccnc12)c1ccc(Br)o1	3%
CCOC(=O)c1ccc(Oc2coc3cc(OC(=O)N(C)C)ccc3c2=O)cc1	i
O=C(c1ccco1)N1N=C(c2cccnc2)CC1c1ccccc1O (stereo not drawn)	i
CCOc1ccccc1N1C(=O)CN=C1Nc1nc(C)cc(C)n1	i
CN(Cc1ccccc1)C(=S)NC(=O)c1cccc([N+](=O)[O-])c1	i
CC(=O)Nc1nc(CCC(C)C)cc2c1c(=O)oc1ccccc12	i
CC(Nc1nc(N2CCN(C(=O)c3ccc(Cl)cc3)CC2)nc2ccccc12)c1ccccc1 (stereo not drawn)	2.7µg/mL*
CC(C)(C)c1ccc(C(=O)Nc2ccon2)cc1	i
COC(=O)c1ccc(C(=O)OC)c(NC(=S)N2CCN(C)CC2)c1	i
Cn1cc(I)c(C(=O)NNC(=S)Nc2ccccc2C(F)(F)F)n1	3%
Cc1ccccc1C(=O)NC(=S)Nc1ccc(N2CCN(C(=O)c3cccs3)CC2)cc1	5%
CCc1ccc(NC2=C(Cl)C(=O)N(c3ccc(C)cc3)C2=O)cc1	i

Other compounds follow:
Structure	Mtb growth
CC(=O)Oc1ccc2nc(-c3ccc(C(C)(C)C)cc3)oc(=O)c2c1	i
Cn1c(=O)c2c(ncn2CC(=O)Nc2cccc(F)c2)n(C)c1=O	i
CCOC(=O)c1cc(-c2ccccc2)sc1NC(=O)COC	i
CCn1c(SCC(=O)NCCc2ccccc2)nnc1-c1ccc(OC)cc1	2%
O=S(=O)(c1cc(Cl)c(O)c(Cl)c1)c1cc(Cl)c(O)c(Cl)c1	0%
CS(=O)(=O)N1CCN(Cc2ccccc2)CC1	i
Cc1cc(Cl)cc(C)c1OCCCCN1CCOCC1	i
Cc1cc(C)cc(N(C(C)C(=O)NC2CCCC2)S(C)(=O)=O)c1 (stereo not drawn)	i
O=[N+]([O-])c1ccc(-c2noc(-c3ccc(Br)cc3)n2)cc1	5%
Fc1ccc(C2=CC(c3ccco3)n3ncnc3N2)cc1 (stereo not drawn)	i
Cc1ccc(NC(=O)CN(C)S(=O)(=O)c2ccc(Br)cc2)cc1C	1%
Cc1cccc(C)c1NC(=O)c1c(NC(=O)c2ccc(F)cc2)sc2c1CCC(C)C2 (stereo not drawn)	i

Going on with the list:
Structure	Mtb growth
O=c1c2ccccc2nc2[nH]c3ccccc3n12	i
Cc1ccc(C)c(NC(=O)CCC(=O)n2nc(C)cc2C)c1	i
CCOC(=O)C1CCN(C(=O)CSc2ccccc2)CC1	3%
O=C(COc1ccc(Br)cc1)NC1CCCC1	0%
CCN(Cc1ccccc1)C1CCN(Cc2c[nH]c3ccccc23)CC1	1%
CCC(=O)NC(=S)Nc1ccc(NC(=S)NC(=O)c2cccs2)cc1	4%
O=S(=O)(Nc1ccccc1F)c1ccc(Oc2ccccc2Cl)cc1	i
O=C(Nc1cc(Cl)c(O)c(Cl)c1)c1ccc(F)cc1	2%
CS(=O)(=O)N(CC(=O)NCCSc1ccccc1)c1cc(Cl)ccc1Cl	i
CCCOc1ccc(-c2csc3ncn(CC(=O)NCc4ccccc4)c(=O)c23)cc1	6%
CN(CC(=O)NCc1ccccn1)S(=O)(=O)c1ccc(Cl)cc1	i
CCn1c(SCC(=O)c2ccc(F)cc2)nnc1C(C)Oc1ccccc1 (stereo not drawn)	i

(list continues)
compound	Mtb growth
CCCSc1ccc(Cl)cc1[N+](=O)[O-]	i
Cc1c(NC(=S)NC(=O)c2cccc3ccccc23)cccc1C(=O)O	i
COCCCNC(=O)c1cccc(NC(=O)c2ccccc2)c1	3%
COc1cccc(-c2nc3ccccc3c(=O)o2)c1	?
CC(C)(C)c1nnc(NS(=O)(=O)c2ccc(F)cc2)s1	5%
Nc1ccc(C(=O)CC2(O)C(=O)N(Cc3ccc(Cl)cc3)c3ccccc32)cc1 (stereo not drawn)	i
S=C(NCc1ccccc1)NNc1nc2ccccc2s1	i
Nc1c(C(=O)NCc2ccccc2)sc2nc(-c3ccncc3)ccc12	6%
Nc1ccc(-c2ncccc2O)cc1	i
CC(=O)c1c(N2CCN(C)CC2)nc(=S)n(-c2cc(C)ccc2C)c1C	i
COc1cccc2c(=O)c3ccccc3oc12	i
COc1ccc(CCNC(=O)c2ccccc2-c2ccccc2)cc1	43%
O=C(O)C1CC=CCC1C(=O)N1CCC(Cc2ccccc2)CC1 (stereo not drawn)	i
CC1CN(C2CCN(Cc3cccc(F)c3)CC2)CC(C)O1 (stereo not drawn)	i
C=CCn1c(SCC(=O)Nc2ncc(Cc3cc(Cl)ccc3Cl)s2)nnc1-c1ccncc1	i
O=C(c1ccncc1)N1CCN(C(=O)c2cccc3ccccc23)CC1	i
CCc1c(C)sc(NC(=S)NNC(=O)c2ccc(-n3cccc3)cc2)c1C(=O)OC	i
O=C(CC1NC(=O)NC1=O)Nc1ccc(F)cc1 (stereo not drawn)	i
CN(C)NC(=O)C(NC(=O)c1ccccc1)C12CC3CC(CC(C3)C1)C2 (stereo not drawn)	i
CCOC(=O)c1c(NC(=S)NC(=O)c2ccc(F)c(F)c2)sc2c1CCC(C)C2 (stereo not drawn)	i
CC(=O)CC(=O)Nc1ccccc1C(N)=O	i
Cc1ccnc(NCc2c(O)ccc3ccccc23)c1	2%
COc1ccc(CNC(=O)C(Cl)(Cl)Cl)cc1	i
O=C(CCNS(=O)(=O)c1ccc(Cl)cc1)N1CCN(Cc2ccccc2)CC1	i
COC(=O)c1c(-c2ccccc2)csc1NC(=O)c1ccccc1Cl	2%

Remaining list, next part.
compound	Mtb growth
CCCCc1ccc(NC(=S)NC(=O)c2ccc(OCC)c(Cl)c2)cc1	0.34µg/mL*
Cc1cc(I)ccc1NC(=S)NC(=O)c1ccc(C(C)C)cc1	4%
O=C(COc1ccc(C(=O)NCCc2ccccc2)cc1)Nc1ccccc1F	i
COc1cc(C(=O)Nc2ccc(C(F)(F)F)cc2Br)cc(OC)c1OC	i
C=CCn1c(NCc2cccc3ccccc23)nc2ccccc21	3.2µg/mL*
COc1cc(NC(=O)CCCN2C(=O)c3ccccc3C2=O)c(OC)cc1Cl	i
COc1cccc(C(=S)N2CCN(Cc3ccccc3)CC2)c1O	1%
Cc1ccc(NC(=O)CSc2ccccc2N)c(C)c1	i
CCOC(=O)c1ccc(NS(=O)(=O)c2ccc(OC)c(Br)c2)cc1	i
O=C(c1ccccc1Br)N1N=C(c2ccccc2)CC1c1ccccc1F (stereo not drawn)	3%
O=C(CC1(O)C(=O)Nc2ccc(Cl)cc21)c1ccc2c(c1)CCCC2 (stereo not drawn)	i
O=C(NC(=S)Nc1ccc(S(=O)(=O)N2CCCC2)cc1)c1ccc(Br)o1	0%
CC(C)Oc1ccc2c(=O)c(-c3ccc4c(c3)OCCO4)coc2c1	i
Cc1cccc(CN(CC(=O)N2CCN(c3ccccc3)CC2)S(=O)(=O)c2ccc(Cl)cc2)c1	5%
CCOc1ccccc1OCc1nn2c(COc3ccccc3)nnc2s1	3%
CC(=O)c1c(C)cc(C)c(CSc2nnc(NC(=O)c3ccccc3Br)s2)c1C	i
COc1ccc(C(=O)Oc2cccnc2)cc1OC	i
Clc1ccc(Cn2ncc3c(N4CCN(Cc5ccccc5Cl)CC4)ncnc32)cc1	?
O=C(O)c1ccc(/C=N/Nc2nncc(=O)[nH]2)cc1	1%
CC(Sc1nc2ccccc2c(=O)[nH]1)C(=O)Nc1ccccc1F (stereo not drawn)	i
COc1ccc(C2(C(=O)NCCN3CCOCC3)CCCC2)cc1	i
O=C(CSc1nnc(-c2ccncc2)n1-c1ccccc1)Nc1ccc(C(F)(F)F)cc1	2%
CCCCOc1ccc2c(C)c(CC(=O)OC)c(=O)oc2c1	1%
Cc1ccccc1CC1S/C(=N\N=C\c2ccccc2Cl)NC1=O (stereo not drawn)	i
CCOc1cc(C2C(C(=O)OC)=C(C)NC3=C2C(=O)CCC3)c(Br)cc1OC(C)C (stereo not drawn)	i

New compounds follow
compound	Mtb growth
Cc1cc(Cl)ccc1OCC(O)CNC(C)c1ccccc1 (stereo not drawn)	8µg/mL*
CCCC(=O)Nc1ccc(S(=O)(=O)N(C)Cc2ccccc2)cc1	8%
CCOc1ccccc1NC(=O)c1ccc(OC(=O)c2ccc(C)cc2)cc1	i
Cc1cc(C)cc(C(=O)Nc2ccc(-c3cc4ccccc4oc3=O)c(C)c2)c1	9%
CCCn1c(SCC(=O)Nc2ccccc2OC)nnc1-c1ccc(Cl)cc1	i
COc1ccc(Oc2ccc(NS(=O)(=O)c3ccccc3)cc2)cc1	0%
O=C(CSc1nc2cc(Cl)ccc2o1)c1ccc([N+](=O)[O-])cc1	4%
O=[N+]([O-])c1ccc(C2Nc3c(C(F)(F)F)ccc(Cl)c3C3C=CCC32)cc1 (stereo not drawn)	25%
O=C(c1ccc(F)cc1)n1c(NCc2ccccc2)n[nH]c1=S	4%
Cc1ccc(-c2noc(Cn3cc(C=O)c4ccccc43)n2)cc1	i
COC(=O)C1=CN(Cc2ccc(OC)c(OC)c2)C=C(C(=O)OC)C1c1cccc([N+](=O)[O-])c1	i
O=C1CC(C(=O)Nc2cccc(C(F)(F)F)c2)C2(CCCCC2)O1 (stereo not drawn)	i
COc1ccc(CCNC(=S)Nc2ccc(OC)cc2OC)cc1	i
Cc1sc2ncnc(SCc3ccc4c(c3)OCO4)c2c1C	i
Cc1ccc(NS(=O)(=O)N2CCOCC2)cc1Cl	i
CCOC(=O)Nc1ccc2c(c1)N(C(=O)N(C)C)c1ccccc1CC2	i
COc1ccc(C(=O)CN(C(=O)c2ccc(Cl)cc2)N2C(=O)c3ccccc3C2=O)cc1	i
CCOc1ccc(N(CC(=O)Nc2cccc(N(C)S(C)(=O)=O)c2)S(=O)(=O)c2ccc(C)cc2)cc1	i
Nc1ccc2nc(SCc3c(Cl)cccc3Cl)sc2c1	i
Cc1onc(-c2ccccc2)c1C(=O)N1CCC2(CC1)OCCO2	i
CC(=O)Nc1nnc(SCC(=O)Nc2cccc(C(C)=O)c2)s1	i
COc1nc(OCCNS(=O)(=O)c2ccc(C)cc2)nc(N(C)C)n1	i
CCOc1ccc(N(CC(=O)Nc2ccccc2C(=O)O)S(C)(=O)=O)cc1	i
S=C(NCC1CCCO1)N1CCN(C2CCCCC2)CC1 (stereo not drawn)	1%
CCCc1cc(=O)oc2cc(OCc3ccccc3Br)ccc12	i
CC(=O)c1cc(C(C)=O)c(Nc2ccccc2)s1	i
